RN4220 kill: kills Staphylococcus aureus RN4220; actives 0.33% (n = 330,000); inhibition, % (test concentration not listed); S. aureus RN4220 growth, OD600, 16 h; AID 1259311;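 active = z-score of -3 or lower and OD600 up to 0.18 on both plates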;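 also: plate controls were untreated cells for no effect and reference antibiotic for full effect; stock transfer was 100 nL into about 80 µL; one replicate is shown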
Mtb hypoxia rep: Mtb hypoxia fluorescent reporter inhibition; M. tuberculosis hypoxia-regulated fluorescent reporter, fluorescence; fluorescence inhibition, % (concentration not given with the values); actives 0.1% (n = 300,000); AID 1159583;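 active = 35 to 45% if threefold the growth effect, above 45% if 1.5-fold the growth effect; inactive = the rest, general growth blockers included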;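 also: wells of about 50 µL received 100 nL stock; 0% = vehicle wells and 100% = reference inhibitor wells; whole bacteria with a GFP reporter of the hypoxia response; strong numbers were not always called active; many hits fall short of the cut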
BJeLR viability: kills HRASV12-expressing BJeLR cells | BJeLR (HRASV12) viability, CellTiter-Glo ATP luminescence, 48 h; reference of the scale not given here | inhibition, % (concentration not given with the values) | actives 0.17% (n = 300,000) | AID 1554;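 active = replicate mean above 50%; inconclusive = above 50% but judged a plate artefact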;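 also: 50 nL library stock added to about 25 µL; numbers are from one replicate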
PrP UTR inh: inhibition of PrP 5' UTR reporter expression; cell-based PrP 5' UTR mRNA reporter, plate reader; actives 0.35% (n = 340,000); AID 488862; inhibition, % (no concentration beside the values);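 active = every replicate at 50% or more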;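 also: 0 = median of the neutral control wells; tested in H4 reporter cells; numbers are from one replicate; inactives centre near -14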
ugtP null kill: kills S. aureus RN4220 lacking UgtP; actives 0.54% (n = 330,000); S. aureus RN4220 ugtP deletion, OD600 growth, 16 h; some inactives read as strong as hits; growth inhibition, % (no concentration beside the values);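 active = z-score under -3 and OD600 up to 0.15 on both plates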;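 also: plate controls were untreated wells for no effect and antibiotic for full effect; wells of about 80 µL received 100 nL stock; the first replicate is given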
Bead autofluor: counter-screen for toxin protease inhibitors: compound fluorescence | compound autofluorescence counterscreen, microsphere flow cytometry; hits give high values | fluorescence intensity (no concentration beside the values) | actives 3.1% (n = 360,000);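 active = at least 3 SD above the mean of all compounds, about 16000 in these data; inconclusive = too few beads counted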;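 also: 100 nL of 1 mM stock went into each well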
Mtb hypoxia rep growth: second read-out of Mtb hypoxia rep, no call of its own (marks repeat the call); growth inhibition, %; measured here: M. tuberculosis growth (absorbance);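 0% = vehicle and 100% = reference antibiotic; read after six days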
Active calls of the source: *; ? = inconclusive; · = not tested or not shown.

Structure	RN4220 kill	Mtb hypoxia rep	Mtb hypoxia rep growth	BJeLR viability	PrP UTR inh	ugtP null kill	Bead autofluor
COCC(C)n1c(SCC(=O)Nc2ccc3c(c2)OCCO3)nc2ccccc2c1=O (stereo unspecified)	0.5	-3	1	·	-14	6	3892
Cc1ccc(-c2cc(C(=O)NN=Cc3ccc([N+](=O)[O-])o3)c3ccccc3n2)o1	38	4	0	·	·	81	·
O=C(N/N=C/c1cccc(Br)c1)c1ccc(N2CCCC2=O)cc1	·	·	·	4	-37	·	6101
O=[n+]1c2c(n([O-])c3cc(F)c(N4CCCC4)cc31)CCCC2	-2.0	21	6	-9	-42	-2	3264
CCOC(=O)N1CCN(C(=O)CSc2nnc(C3COc4ccccc4O3)o2)CC1 (stereo unspecified)	1.5	·	·	3	6	6	5242
COC(=O)c1ccc(COc2ccccc2C=NO)o1	6.6	1	3	·	·	-3	·
CC(C)N1CCN(Cc2nc3c(s2)CCCC3)CC1CCO (stereo unspecified)	-1.5	-14	-4	-34	-8	2	4504
COc1ccc(S(=O)(=O)N2CCC(C(N)=O)(N3CCCCC3)CC2)cc1	-2.7	10	9	-3	-24	1	4847
CC(=O)c1ccccc1NC(=O)COC(=O)c1cc(C)oc1C	6.1	-2	-1	·	-15	4	6044
Cc1oc(C(=O)O)cc1CSCc1ccoc1C(=O)O	0.3	5	2	0	-12	4	2854
C=CCN(CC=C)CC(=O)Nc1cccc(Oc2cnccn2)c1	1.6	7	0	0	-10	7	2994
COc1cccc(-n2ccnc2SCC(=O)N2CCCc3ccccc32)c1	6.0	5	0	-19	-4	1	2086
COCCOC1CCN(Cc2cn(Cc3ccccc3)nc2-c2cc3ccccc3o2)CC1	-0.4	5	0	3	-16	10	3633
CC(=NNC(=O)c1cccnc1)c1nnn(-c2nonc2N)c1C	-1.2	5	6	·	·	-10	·
CCOc1ccc(CC2CCC(=O)NC2=O)cc1 (stereo unspecified)	1.2	3	-2	7	12	-1	2429
Cc1cccc(/C=C2/C(=O)/C(=C/c3ccccc3C)C3CCC2N3C)c1 (stereo unspecified)	-2.6	·	·	6	-17	2	2188
COc1ccccc1-n1cnc2sc(C)c(C)c2c1=O	2.1	7	3	-2	-20	10	3149
COc1ccc(CN2CC(Cc3ccccc3)C(CC(=O)Nc3ccccc3)C2=O)cc1 (stereo unspecified)	5.9	4	2	·	·	0	·
N#CCC(=O)NN=Cc1ccccc1Cl	-5.4	-3	-1	·	·	6	·
Cc1ccc2c(c1)C(c1ccccc1)N(C(=O)c1c(F)cccc1Cl)CC(=O)N2 (stereo unspecified)	3.6	-19	-9	2	2	-6	2877
COc1ccc(C(C(=O)Nc2ccc(F)cc2)N(C(=O)Cn2nnc3ccccc32)C2CC2)cc1 (stereo unspecified)	0.7	-1	1	-8	-4	8	5805
COc1ccn(C2CCCCO2)c(=O)n1 (stereo unspecified)	-2.1	17	11	·	-18	-2	3651
COc1ccc(C(=O)OCC(=O)Nc2cc(C)c(C)cc2[N+](=O)[O-])cc1	2.2	5	1	1	5	-29	2629
Cc1ccc(Cl)cc1N1CCN(Cc2nc3c(c(=O)[nH]c(=O)n3C)n2CCc2ccccc2)CC1	10	-1	-3	3	-3	8	3040
COc1ccc(-c2[nH]ncc2/C=N/NC(=O)c2cc(Br)ccc2O)c(OC)c1	·	·	·	8	-9	·	7740
CSc1ccccc1COC(=O)Nc1ccccc1C	2.8	8	1	2	-7	4	4460
CN(C(=O)CON=Cc1ccc(OC(F)F)cc1)C1CCS(=O)(=O)C1 (stereo unspecified)	0.0	2	3	·	·	1	·
COC(=O)c1c(C)[nH]c(O)c1C=Nc1ccc(Oc2ccccc2)cc1	11	7	5	10	-28	3	2637
CC(C)C(c1nnnn1C1CCCCC1)N1CCc2ccccc21 (stereo unspecified)	5.9	9	-8	2	-2	6	3577
O=C(CC1COc2ccccc2O1)NCc1ccccc1 (stereo unspecified)	2.7	11	13	-12	-19	-2	10203
CCN(C(=O)COC(=O)C(c1ccccc1)c1ccccc1)c1c(N)n(Cc2ccccc2)c(=O)[nH]c1=O	0.9	-7	7	·	-11	3	3569
COC(=O)c1sccc1NC(=O)CN1CCN(c2ccc(F)cc2)CC1	-5.4	20	12	2	0	4	3318
COc1cccc(C(=O)COC(=O)CCC(=O)c2ccccc2)c1	4.0	2	-1	-14	-7	13	4290
Cc1ccccc1OCC(=O)Nc1cccc(C(=O)O)c1	4.8	13	12	4	76*	1	4585
CCCOc1ccccc1-n1sc2c(c1=S)-c1cc(OC)cc3c1N(C(=O)C3=O)C2(C)C	33	-2	5	3	-19	-12	4937
O=C(Nc1ccc(NC(=O)C2CC2)nc1)c1ccccn1	0.1	16	10	9	-17	2	3868
COC(=O)[C@]1(C)N[C@H](CN(C)S(=O)(=O)c2ccc(OC(F)(F)F)cc2)[C@@H]2C(=O)N(Cc3ccccc3)C(=O)[C@@H]21	3.9	-4	13	·	6	2	3729
CC(=O)c1cccc(OCc2cc(C(=O)N(C)C(C)c3ccccn3)no2)c1 (stereo unspecified)	3.4	6	10	-5	-4	3	6110
CCn1nc(C)c(CNC(=O)CC2C(=O)NCCN2CC(C)(C)C)c1C (stereo unspecified)	3.5	6	-4	-7	-8	3	2631
CCOc1cccc(N2C(=O)CC(N(CCc3ccc(OC)c(OC)c3)C(=O)CC)C2=O)c1 (stereo unspecified)	-6.2	5	13	6	2	-6	2965
CN(C)CCN1C(=O)C(=O)/C(=C(/O)c2ccc(S(=O)(=O)N3CCOCC3)cc2)C1c1ccc(F)cc1 (stereo unspecified)	1.9	-2	-1	4	-3	0	5101
COC(=O)Cn1c(=NC(=O)c2nc3ccccc3s2)sc2cc(S(C)(=O)=O)ccc21	3.0	6	2	-20	·	-1	·
CCOc1ccc(OCc2cccc(C(=O)NN=Cc3cccnc3)c2)cc1	6.1	9	2	·	·	14	·
CCc1ccc(-n2c(Cc3ccccc3)n[nH]c2=S)cc1	2.9	13	5	-12	2	4	4113
Cc1cc(C)n(-c2c(F)c(F)c(CN3CCCCC3)c(F)c2F)n1	12	-15	6	14	-2	5	4813
N#Cc1ccsc1NC(=O)CCS(=O)(=O)c1ccccc1	5.0	2	-10	-6	-10	15	·
CC(C)Nc1nc(NC(C)C)nc(Oc2ccc(C=NO)cc2)n1	-3.7	-3	7	·	·	-23	·
CCC(=O)N1CCCc2cc(S(=O)(=O)N3CCN(c4ccccn4)CC3)ccc21	2.3	8	-2	15	10	9	3400
Cc1ccc(-n2c(-c3ccco3)nc3nc4ccccc4nc32)cc1F	·	·	·	-4	-2	·	?
COc1ccc(O)c(-c2nc(N)nc(N)n2)c1	-0.2	-6	-6	·	-23	-1	4170
O=C1S/C(=C\c2cccs2)C(=O)N1c1ccc(O)cc1	4.9	18	4	-4	-81	3	3968
OCCN1CCN(C(=S)c2ccc(Cl)cc2)CC1	6.2	·	·	-3	-6	7	2092
O=C(O)c1cccc(NN=Cc2cccnc2)c1	-6.2	4	4	·	·	1	·
O=C(/C=C/c1ccc(Cl)cc1Cl)N1CCN(c2ccc([N+](=O)[O-])c(N3CCOCC3)c2)CC1	1.7	-6	8	-17	-9	-12	2094
CSc1nc2nccc(-c3ccc4c(c3)OCO4)n2n1	0.1	-2	12	-5	5	-6	4544
Cc1cc(C)cc(OCCn2nnc3ccccc32)c1	6.8	6	5	-13	-22	1	3976
CS(=O)(=O)c1ccc2nc(NC(=O)CN3CCCCCC3)sc2c1	2.3	2	6	-12	-13	5	10552
O=C(c1cccs1)N1CCCN(c2ncnc3scc(-c4ccccc4)c23)CC1	4.5	2	4	4	-15	7	·
COC(=O)c1cc(Br)c(=O)n(-c2cc(C)on2)c1	-10	15	11	6	5	-3	2904
COc1cc(C(=O)NN=Cc2cn(Cc3ccccc3)c3ccccc23)ccc1O	-1.2	9	-2	·	·	-3	·

The last two compounds of the section above open the next one.
Structure	RN4220 kill	Mtb hypoxia rep	Mtb hypoxia rep growth	BJeLR viability	PrP UTR inh	ugtP null kill	Bead autofluor
COC(=O)c1cc(Br)c(=O)n(-c2cc(C)on2)c1	-10	15	11	6	5	-3	2904
COc1cc(C(=O)NN=Cc2cn(Cc3ccccc3)c3ccccc23)ccc1O	-1.2	9	-2	·	·	-3	·
CC(C)CN(C(=O)c1cc(=O)[nH]c2ccccc12)c1c(N)n(Cc2ccccc2)c(=O)[nH]c1=O	0.7	2	7	9	-19	2	14212
CCc1nnc(NC(=O)C(NC(=O)c2cccc(S(=O)(=O)N3CCOCC3)c2)C(C)C)s1 (stereo unspecified)	2.1	-1	-5	·	·	-3	·
COc1cc2cc(C(=O)N/N=C/c3ccc(F)cc3)[nH]c2cc1OC	·	·	·	6	-12	·	3861
COC(=O)c1c(NC(=O)c2c(C)noc2C)sc2c1CCCCCC2	4.5	0	2	0	·	9	·
CCOc1ccc(C2C3=C(CCCC3=O)Nc3nc(C(F)(F)F)nn32)cc1OC (stereo unspecified)	3.3	-2	8	9	-11	-3	2313
O=C(Cc1ccccc1F)Nc1cc(S(=O)(=O)N2CCCC2)ccc1Cl	2.6	9	5	·	-17	10	6571
O=C(Cc1cccs1)N1CCCC(c2nc(-c3ccc(S(=O)(=O)N4CCCC4)cc3)no2)C1 (stereo unspecified)	0.3	-4	-3	10	-12	-3	16599*

Gathered by group, those above with an NH in an aromatic ring.
Structure	RN4220 kill	Mtb hypoxia rep	Mtb hypoxia rep growth	BJeLR viability	PrP UTR inh	ugtP null kill	Bead autofluor
Cc1ccc(Cl)cc1N1CCN(Cc2nc3c(c(=O)[nH]c(=O)n3C)n2CCc2ccccc2)CC1	10	-1	-3	3	-3	8	3040
COc1ccc(-c2[nH]ncc2/C=N/NC(=O)c2cc(Br)ccc2O)c(OC)c1	·	·	·	8	-9	·	7740
COC(=O)c1c(C)[nH]c(O)c1C=Nc1ccc(Oc2ccccc2)cc1	11	7	5	10	-28	3	2637
CCN(C(=O)COC(=O)C(c1ccccc1)c1ccccc1)c1c(N)n(Cc2ccccc2)c(=O)[nH]c1=O	0.9	-7	7	·	-11	3	3569
CCc1ccc(-n2c(Cc3ccccc3)n[nH]c2=S)cc1	2.9	13	5	-12	2	4	4113
CC(C)CN(C(=O)c1cc(=O)[nH]c2ccccc12)c1c(N)n(Cc2ccccc2)c(=O)[nH]c1=O	0.7	2	7	9	-19	2	14212
COc1cc2cc(C(=O)N/N=C/c3ccc(F)cc3)[nH]c2cc1OC	·	·	·	6	-12	·	3861

Assay outcomes: PubChem BioAssay, several laboratories
